ALR H2O2 inh = inhibitors of human sulfhydryl oxidase ALR; P55789; purified ALR, DTT oxidation, H2O2 HRP-luminol luminescence; inhibition, % (no concentration beside the values); 3.8% of 290,000 active;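 active means mean and each replicate at 75% or more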;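 further: stock transfer was 7.5 nL into about 7.5 µL; 0% = neutral wells and 100% = wells with inactivated enzyme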
Vif TR-FRET = inhibitors of Vif binding to APOBEC3G peptide, primary screen, biochemical, TR-FRET, GST-Vif 1-94, biotin-A3G peptide, dose response retest (AID 1117319) | 0.57% of 260,000 active | inhibition, %; hits with a dose series show IC50 in µM | TR-FRET GST-Vif / biotin-A3G peptide binding; higher % means a stronger effect; test concentration not given here; strong numbers were not always called active;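 active means above the screen mean plus three standard deviations and confirmed in dose response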;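 further: Vif residues 1-94 fused to GST binding biotinylated APOBEC3G peptide 110-148; 0% = full assay without inhibitor and 100% = GST in place of GST-Vif; retest series ran down from 100 µM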
HNF4A DNA FP = change in binding of human HNF4 alpha to DNA; P41235; HNF4a-FITC DNA binding, fluorescence polarization, 1 h; activity change, % at 10 µM; 0.3% of 360,000 active; in the data active means activity change above about 30%, passing the limit was not always enough;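 further: controls were the assay level and a saturating level of protein; the project sought stronger binding though the title names inhibitors; some compounds called inactive have numbers as strong as hits; positive values seem to mean higher polarization but the record does not say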
Target sequence (P41235 whole entry, looked up): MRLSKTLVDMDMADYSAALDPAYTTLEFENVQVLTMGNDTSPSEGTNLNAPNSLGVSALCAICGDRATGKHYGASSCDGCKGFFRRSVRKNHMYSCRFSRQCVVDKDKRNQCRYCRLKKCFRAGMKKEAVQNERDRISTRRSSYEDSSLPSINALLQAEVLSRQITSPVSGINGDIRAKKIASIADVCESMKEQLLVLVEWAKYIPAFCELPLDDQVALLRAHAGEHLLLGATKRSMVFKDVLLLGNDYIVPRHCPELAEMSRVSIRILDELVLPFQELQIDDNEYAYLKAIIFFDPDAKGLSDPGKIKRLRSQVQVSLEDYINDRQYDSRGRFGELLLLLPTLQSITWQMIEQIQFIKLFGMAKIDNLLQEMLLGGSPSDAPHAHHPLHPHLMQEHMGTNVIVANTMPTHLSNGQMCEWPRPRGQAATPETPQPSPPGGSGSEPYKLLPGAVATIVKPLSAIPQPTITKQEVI
rRNA inh HTS = selective bacterial rRNA inhibition in E. coli; 1.6% of 350,000 active; E. coli WT GFP vs humanized-ribosome RFP mutants, fluorescence, 24 h; hits give low values; DMSO median 0, no signal -100; AID 720706; GFP signal change (wild-type ribosome), % (concentration not given with the values);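 active means significant combined selectivity score with lowered wild-type GFP, culture density cut under 30%, mutant RFP and density less affected; inactive means any of these conditions unmet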; further: one replicate is shown; some compounds called inactive have numbers as strong as hits
E coli growth = blocks Escherichia coli growth; OD600, 23 h; hits give low values; OD600 absorbance (concentration not given with the values); 0.21% of 330,000 active; AID 1053175;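 active means OD600 absorbance below the run mean of sample wells minus 3.6 SD, in any replicate, cut at about 0.56 in these data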;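 further: stock transfer was 300 nL into about 60 µL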
FGF22 binding = binders of recombinant human FGF22 by thermal shift; AID 651658; 1.5% of 340,000 active; calls only at 9.99 µM; SYPRO orange fluorescence; percent of sucrose octasulfate shift, DMSO zero; Q9HCT0;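 active means melting point raised past a set limit in the mean and every replicate; three in four hits are not shown here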
MLL AF4-AF9 inh = blocks AF4 peptide binding to human AF9; AlphaScreen, biotin-AF4 peptide binding to FLAG-AF9; inhibition, % at 10 µM; AID 651704; 0.47% of 350,000 active; P42568;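 active means every replicate reaching a set inhibition limit, whatever the replicate mean, cut at about 25% in these data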;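 further: 0% = plate neutral control median and 100% = total signal loss; the record names both 10 and 1 µM as test concentration; the first replicate is given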
Target sequence (P42568 whole entry, looked up): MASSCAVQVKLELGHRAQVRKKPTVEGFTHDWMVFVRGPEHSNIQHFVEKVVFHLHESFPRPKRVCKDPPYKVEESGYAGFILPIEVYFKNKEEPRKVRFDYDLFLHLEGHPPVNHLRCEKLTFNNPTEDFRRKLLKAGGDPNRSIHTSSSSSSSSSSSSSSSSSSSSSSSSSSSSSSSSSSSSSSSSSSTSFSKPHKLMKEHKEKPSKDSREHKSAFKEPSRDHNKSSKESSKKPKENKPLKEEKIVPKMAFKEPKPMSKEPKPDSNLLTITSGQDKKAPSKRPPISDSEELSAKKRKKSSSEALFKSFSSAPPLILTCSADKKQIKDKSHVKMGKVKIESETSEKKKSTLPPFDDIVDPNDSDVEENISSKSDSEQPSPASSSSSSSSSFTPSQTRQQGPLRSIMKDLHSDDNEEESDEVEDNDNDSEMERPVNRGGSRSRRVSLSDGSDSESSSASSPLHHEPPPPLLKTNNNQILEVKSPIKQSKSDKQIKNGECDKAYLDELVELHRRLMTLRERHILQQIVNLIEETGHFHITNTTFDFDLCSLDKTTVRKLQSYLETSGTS
rRNA inh HTS OD600 = second read-out of rRNA inh HTS, no call of its own (marks repeat the call); OD600 change, %; measured here: OD600 growth;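 optical density of the mix in the first replicate; 0 = DMSO median and -100 = no signal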
rRNA inh HTS RFP = further read-out of rRNA inh HTS, marked with its call; RFP signal change, %; measured here: RFP humanized mutant strains;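 first replicate; 0 = DMSO median and -100 = no signal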
* = called active by the depositor; i = inactive; . = not tested or not shown; & = joins results of further samples. Some of the compounds tested; rates above refer to the full screens.

SMILES | ALR H2O2 inh | Vif TR-FRET | HNF4A DNA FP | rRNA inh HTS | rRNA inh HTS OD600 | rRNA inh HTS RFP | E coli growth | FGF22 binding | MLL AF4-AF9 inh
C[C@@H]1CN([C@@H](C)CO)C(=O)CCCn2cc(nn2)CO[C@H]1CN(C)C(=O)C1CCCCC1 | . | . | . | 2&10 | 10&-10 | 0.4&-0.4 | . | i | -0.5&-1.0
Cc1ccc(N2C(=O)C(CN3CCCCC3)C2c2ccccc2)cc1 (stereo not drawn) | -9 | 2% | 0.1 | -3 | -24 | -7.2 | 0.59 | i | 3.9
CC(C)Nc1nc(NC(C)C)nc(NS(=O)(=O)c2ccc(N)cc2)n1 | -9 | 3% | 2.4 | . | . | . | 0.73 | . | .
COc1ccc(Cl)cc1N1C(=O)/C(=C\c2sccc2C)N=C1SCC(=O)NC1CC1 | 81* | 3% | -0.1 | . | . | . | 0.75 | . | .
Nc1nc(N)c2[nH]c(-c3ccccc3)nc2n1 | 46 | . | -0.6 | 3 | 3 | -3.2 | 0.64 | i | -0.4
Cc1ccc(S(=O)(=O)Nc2ccc3c(c2)C(=O)N([C@H](C)CO)C[C@@H](C)[C@@H](CN(C)S(C)(=O)=O)OCCCC[C@H](C)O3)cc1 | . | . | . | -2 | 0 | -0.3 | . | i | -1.2
CC(=O)OC(C)(CCC(C)(OC(C)=O)C(C)=O)C(C)=O (stereo not drawn) | . | 8% | 2.1 | . | . | . | 0.7 | . | .
COc1cc(C)ccc1OCc1cc(C(=O)N2CCC(c3ccc(F)cc3)C2)no1 (stereo not drawn) | 0 | . | 1.4 | -14* | 7.8* | 0.4* | 0.71 | i | 2.9
C[C@@H]1CN([C@@H](C)CO)C(=O)Cc2cc(NC(=O)C3CCCCC3)ccc2O[C@H]1CN(C)S(=O)(=O)c1ccc(Cl)cc1 | . | . | . | 0 | -6 | 1.6 | . | i | 2.7
S=c1[nH]nc(C2COc3ccccc3O2)o1 (stereo not drawn) | 19 | 3% | -1.6 | 4 | -6 | -0.5 | 0.75 | . | .
CC1(Cc2cc(Cl)ccc2C(F)(F)F)C(=O)Nc2ccc(-c3ccc(F)c(Cl)c3)cc21 (stereo not drawn) | . | . | 2.8 | 3 | 28 | -2.7 | . | i | -0.4
COc1cccc(C2CC(C(F)(F)F)n3ncc(C(=O)NCC4CCCO4)c3N2)c1 (stereo not drawn) | -7 | -3% | 1.8 | . | . | . | 0.67 | . | .
COc1ccc(C2(C(=O)NCc3ccco3)CCCC2)cc1OC | -6 | 24% | 0.0 | . | . | . | 0.68 | . | .
C[C@@H]1CN([C@@H](C)CO)C(=O)c2cc(NC(=O)c3ccncc3)ccc2O[C@@H](C)CCCCO[C@H]1CN(C)S(=O)(=O)c1cn(C)cn1 | . | . | . | 7 | 9 | 4.0 | . | i | 0.3
C[C@@H]1CN([C@@H](C)CO)C(=O)CCCn2nncc2CO[C@@H]1CN(C)C(=O)Nc1ccc2c(c1)OCO2 | . | 2% | -1.3 | 30&0 | 16&0 | 1.7&-0.7 | . | i | -9.3&0.2&0.5
CNS(=O)(=O)c1cc(OC)ccc1OC | -1 | 1% | 1.2 | . | . | . | 0.67 | . | .
O=C(O)C[C@@H]1C[C@H]2c3cc(NS(=O)(=O)c4ccc(F)cc4)ccc3O[C@H]2[C@@H](CO)O1 | . | . | . | 5 | 10 | 2.7 | . | i | -4.1
Cc1ccc(C(=O)NCCc2nnc3ccc(NCc4ccc5c(c4)OCO5)nn23)cc1 | 22 | . | 0.8 | 8 | 20 | 1.8 | 0.74 | i | -0.5
CSc1ncc(Cl)c(C(=O)Nc2ccccc2[N+](=O)[O-])n1 | -5 | -2% | -2.4 | -2 | -1 | -3.4 | 0.67 | i | 3.5
N#C/C(=C/c1ccc(-c2cccc([N+](=O)[O-])c2)o1)C(=O)Nc1nc(-c2cccs2)cs1 | . | 1% | 0.0 | 0 | 13 | 7.6 | 0.66 | i | -1.2
O=C(Nc1ccccc1F)N1CC2(C1)[C@H](c1ccccc1)[C@H](CO)N2C(=O)CC1CC1 | . | . | . | -1 | 1 | -0.7 | . | i | -0.2
Fc1ccc(NC(=S)Nc2ccc3nccnc3c2)cc1 | 8 | 5% | 2.7 | -20 | -18 | -6.3 | 0.7 | i | 0.5
O=C1N=C(O)CN1/N=C/c1ccc(-c2ccc([N+](=O)[O-])cc2)o1 | -5 | . | -2.0 | -25 | -15 | -1.6 | . | i | -0.6
COCCN(C(=O)c1ccc2c(c1)C(=O)N(c1ccccc1Cl)C2=O)c1c(N)n(CC(C)C)c(=O)[nH]c1=O | . | . | -0.8 | 10 | 15 | -0.1 | 0.67 | i | -2.7
Cc1cc(C)n(C(=O)CCCn2nc(C)c([N+](=O)[O-])c2C)n1 | -19 | -7% | -0.1 | 2 | 7 | 2.6 | 0.68 | i | -1.0
CCC(C)c1ccc(OCC(=O)Nc2ccc(Cl)cn2)cc1 (stereo not drawn) | 0 | 33% | 6.5 | . | . | . | 0.7 | . | .
O=P(O)(CCc1ccccn1)CN1CCOCC1 | -9 | . | -1.8 | . | . | . | 0.64 | . | .
Cc1ccc2c(c1)/C(=C/c1ccccc1)C(=O)N2 | 5 | -3% | -2.5 | -48 | -53 | -10 | 0.67 | i | -16
CCC(=O)N1C[C@H](O)COC[C@H]2O[C@H](CC(=O)NC)CC[C@@H]21 | . | . | . | 1 | -6 | -6.6 | . | i | -2.5
COc1ccccc1CNc1nc2cc(-c3ccccc3C)sc2c(=O)n1C | . | . | -2.4 | 12 | 11 | 1.0 | . | i | 4.2

Arranged by molecular weight (high to low): 4 of the compounds above
SMILES | ALR H2O2 inh | Vif TR-FRET | HNF4A DNA FP | rRNA inh HTS | rRNA inh HTS OD600 | rRNA inh HTS RFP | E coli growth | FGF22 binding | MLL AF4-AF9 inh
COc1ccccc1CNc1nc2cc(-c3ccccc3C)sc2c(=O)n1C | . | . | -2.4 | 12 | 11 | 1.0 | . | i | 4.2
CCC(C)c1ccc(OCC(=O)Nc2ccc(Cl)cn2)cc1 (stereo not drawn) | 0 | 33% | 6.5 | . | . | . | 0.7 | . | .
Fc1ccc(NC(=S)Nc2ccc3nccnc3c2)cc1 | 8 | 5% | 2.7 | -20 | -18 | -6.3 | 0.7 | i | 0.5
Cc1ccc2c(c1)/C(=C/c1ccccc1)C(=O)N2 | 5 | -3% | -2.5 | -48 | -53 | -10 | 0.67 | i | -16

Later entries:
SMILES | ALR H2O2 inh | Vif TR-FRET | HNF4A DNA FP | rRNA inh HTS | rRNA inh HTS OD600 | rRNA inh HTS RFP | E coli growth | FGF22 binding | MLL AF4-AF9 inh
O=C1CSC(c2ccccc2Br)N1c1ccc(Cl)cn1 (stereo not drawn) | -6 | -5% | -0.1 | -34 | -32 | -4.7 | 0.69 | . | 1.4
CC1(C(=O)NCCc2ccccc2)Cc2c(-c3ccc(C(N)=O)cc3)ccnc2O1 (stereo not drawn) | . | . | 1.6 | -27 | -45 | -21 | . | i | -1.0
CCN(CC)C(=O)CSc1nc(O)c(Cc2ccccc2)c(=O)n1-c1ccc(C)cc1 | 8 | 4% | 2.4 | 1 | 0 | 2.6 | 0.62 | i | -4.8
O=C(N[C@@H]1CC[C@@H](CCNS(=O)(=O)Cc2ccccc2)O[C@H]1CO)c1ccccc1F | . | . | . | 1 | -1 | 0.3 | . | i | 0.8
O=C(CCC(=O)c1ccccc1)NCc1cccc(C(F)(F)F)c1 | -5 | -6% | 0.7 | 1 | 2 | -1.0 | 0.64 | i | -0.5
COc1ccc(C(=O)NC2CCCCCC2)cc1OC1CCN(C(C)=O)CC1 | 93* | . | 1.2 | -3 | 4 | 1.5 | 0.69 | i | -5.9
O=C(NC(=S)Nc1c(Cl)ccc2nsnc12)c1ccccc1F | -25 | -6% | 0.3 | 4 | 2 | -2.4 | 0.68 | i | -2.2
COc1ccccc1/C=N/NC(=O)CC(=O)Nc1ccc(Cl)c(Cl)c1 | -10 | -8% | 44* | . | . | . | . | . | .
CCOc1ccccc1NC(=O)COc1coc(CN2CCc3ccccc32)cc1=O | . | 7% | -0.4 | -16 | -19 | 2.9 | 0.69 | i | 11
O=C(C[C@H]1C=C[C@@H](NC(=O)Nc2ccc3c(c2)OCO3)[C@@H](CO)O1)NCc1ccc2c(c1)OCO2 | . | . | . | 1 | -2 | -2.5 | . | i | -0.4
CCCCCCSc1ccc(-c2nc3ccccn3c2NCCCC)cc1 | 8 | . | 5.3 | -16 | -32 | -12 | 0.69 | i | -17
CCc1ccccc1OCCOc1ccc(C)cc1OC | 3 | 8% | -0.8 | . | . | . | 0.75 | . | .
Cc1ccc(OC(=O)N(C)C[C@@H]2OCc3ccccc3-c3ccccc3C(=O)N([C@@H](C)CO)C[C@H]2C)cc1 | . | . | . | -1 | 0 | -0.2 | . | i | 6.2
O=C(CCCN1C(=O)S/C(=C/c2ccccc2)C1=S)Nc1ccc(C(=O)O)cc1 | -2 | . | 3.8 | 4 | -3 | -0.2 | 0.68 | i | 2.6
COc1ccc(CC2(CO)CCN(Cc3cccnc3)CC2)cc1 | -4 | . | 1.1 | 15 | 11 | -1.7 | 0.69 | i | -0.2
CO[C@@H]1CN(C)C(=O)c2ccc(NC(=O)c3cc(C)on3)cc2OC[C@@H](C)NC[C@H]1C | . | . | . | -1 | -1 | -2.0 | . | i | -4.1
CSc1cc(-c2ccccc2)n(Cc2ccccc2Cl)c(=O)c1C#N | -8 | -5% | -0.9 | . | . | . | 0.78 | . | .
CC(C)C#Cc1ccc([C@@H]2[C@H](CO)N3CCCCN(C(=O)c4ccc(F)cc4)C[C@@H]23)cc1 | . | . | . | -58 | -78 | -18 | . | i | 2.5
COc1ccccc1-c1ccc(Nc2cccc(C(C)=O)c2)nn1 | 1 | 2% | -1.4 | 16 | 6 | -4.1 | 0.73 | i | 5.0
COc1ccc(NC(=O)CSc2ccc(-c3sc(C)nc3C)nn2)cc1 | -5 | 1% | 0.8 | -1 | -1 | 3.8 | 0.71 | i | 0.1
CC(=O)N1CC2(C1)[C@@H](c1ccccc1)[C@@H](CO)N2C(=O)c1cnccn1 | . | . | . | 4 | 12 | -0.8 | . | i | -3.4
COc1ccc(-c2nc(C#N)c(NCc3cccnc3)o2)cc1OC | 34 | -5% | -0.8 | . | . | . | 0.69 | . | .
O=C(CN1C(=O)COc2ccccc21)N(Cc1ccc2c(c1)OCO2)CC1CCCO1 (stereo not drawn) | -13 | 7% | -1.4 | . | . | . | 0.73 | . | .
Cc1noc(C)c1S(=O)(=O)Nc1ccc2c(c1)C(=O)N([C@@H](C)CO)C[C@H](C)[C@@H](CN(C)S(=O)(=O)c1c(C)noc1C)OCCCC[C@H](C)O2 | . | . | . | 3 | 1 | 4.0 | . | i | -8.3
COc1ccc(NC(C)=[N+](C)CCNS(=O)(=O)c2ccc(Cl)cc2)cc1Cl | 1 | 1% | -3.1 | 4 | 3 | -2.7 | 0.72 | i | 2.2
O=C(c1ccccc1NS(=O)(=O)c1ccc(F)cc1)N1CCCCC1 | -1 | -5% | 0.3 | 1 | -6 | -0.4 | 0.69 | i | -8.8
COc1ccc(/C=C/C(=O)c2cc(F)ccc2OC(=O)c2ccccc2)cc1OC | 3 | -2% | -1.3 | . | . | . | 0.71 | . | .
Cc1ccc(S(=O)(=O)N2CC3(O)CN(C(=O)OC(C)C)N(C(=O)OC(C)C)CC3(OC(=O)NC3CC3)C2)cc1 (stereo not drawn) | . | . | 2.1 | . | . | . | . | i | -5.6
COC(=O)c1ccccc1S(=O)(=O)NNC(=O)C12CC3CC(CC(C3)C1)C2 | -13 | . | 1.1 | 6 | 6 | 1.4 | 0.69 | i | 0.8

Screening data (PubChem)
